# Assay outcomes (PubChem BioAssay)
# V. cholerae motility – Vibrio cholerae motility inhibitors, OD read-out (AID 588778); Vibrio cholerae motility, OD read-out; higher % means a stronger effect; test concentration not given here; primary cut-off and reference of the scale not given here; strong numbers were not always called active; inhibition, %, or IC50 in µg/mL where a hit was titrated; 10,000 tested, under 10 active; in the data active = confirmed in a dose series
# V. cholerae motility viability – also measured in V. cholerae motility; calls as there; inhibition, %; measured here: bacterial viability at 10 ug/mL;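 higher means fewer living bacteria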
# * hit, by the source's call. Some of the compounds tested, so the mix of outcomes need not match the whole.
SMILES,V. cholerae motility,V. cholerae motility viability
CCOC(=O)CC1NC2CCCCC2NC1=O (stereo unspecified),2.2%,4.8
COC(=O)c1cc(NS(=O)(=O)c2ccc(OC)c(Br)c2)ccc1Cl,-8.3%,-7.8
S=C(NCC1CCCO1)N1CCN(C/C=C/c2ccccc2)CC1 (stereo unspecified),-1.3%,1.8
O=C(CSc1nc2ccc([N+](=O)[O-])cc2s1)Nc1ccc(N2CCOCC2)c(Cl)c1,6.8%,-5.5
Cc1cc(Cl)ccc1OCCCC(=O)NNC(=S)NCc1ccccc1,-1.8%,7.6
O=C(COc1cc(Cl)c(Cl)cc1Cl)Nc1ncn[nH]1,5.1%,-12.0
CCOC(=O)C(=O)C(C#N)c1ccc(OC(C)C)cc1 (stereo unspecified),-4.4%,-6.1
O=C(NC(=O)N1CCCCC1)c1ccc(Cl)cc1,24.6%,4.6
C=CCn1c(=O)c2c3c(sc2n2c(Nc4ccc(OC)cc4)nnc12)CCC3,-19.9%,-9.2
O=C(CSc1nccn1Cc1ccccc1)Nc1nccs1,10.2%,4.4
COc1ccc(CCNC(=O)c2nc(SCc3ccccc3)ncc2Cl)cc1OC,6.3%,1.3
Cc1ccc(NC(=O)c2cc([N+](=O)[O-])ccc2N(CCO)CCO)cc1Cl,-3.9%,-5.7
O=C(Nc1ccc(S(=O)(=O)c2ccc(NC(=O)C(F)(F)F)cc2)cc1)C(F)(F)F,1.7%,1.9
CC1CCCC(C)N1C(=O)c1ccc(C(=O)N2C(C)CCCC2C)nc1 (stereo unspecified),45.0%,49.2
COc1ccc(CCNC(=O)CSc2nnc(-c3sc4ccccc4c3Cl)o2)cc1OC,3.6%,-1.1
C=CCNc1nc(NCCN2CCOCC2)nc(N2CCOCC2)n1,-3.0%,-4.9
O=C(CCS(=O)(=O)Cc1ccccc1)n1nnc2ccccc21,-4.4%,-2.8
O=C(O)CSCc1ccc(C(=O)O)o1,-2.4%,-4.5
O=C(Nc1ccc([N+](=O)[O-])cc1)N1CCN(C(=O)C2CCCO2)CC1 (stereo unspecified),4.8%,1.8
O=C(NNC(=S)NCCc1ccccc1)c1cc(-c2cccs2)nc2ccccc12,-6.7%,-5.9
Cc1cc(C(=O)Oc2ccccc2C(=O)O)c(C)o1,-7.1%,-6.5
COc1ccc(C(=O)O)cc1NC(=S)NC(=O)COc1ccc(Br)cc1,7.0%,2.8
O=C(Nc1ccc(N2CCOCC2)c(Br)c1)c1ccc(F)cc1,4.9%,1.6
COC(=O)C1=C(C)Nc2nnnn2C1c1ccc(Br)s1 (stereo unspecified),9.1%,-4.5
O=C(c1sc2cc([N+](=O)[O-])ccc2c1Cl)N1CCN(C(=S)NCC2CCCO2)CC1 (stereo unspecified),-0.9%,11.2
c1ccc(-c2cnc(SCc3nc4ccccc4[nH]3)[nH]2)cc1,11.5%,1.4
CC1=CC(C)(C)N(C(=O)CSc2nc3ccccc3o2)c2cc(C)ccc21,-42.6%,-18.6
O=C(Nc1cccc(-c2nnc(-c3ccccc3)o2)c1)c1ccc(Br)o1,-6.6%,3.5
COc1cc(/C=C(/C#N)c2nc3ccccc3[nH]2)cc(Cl)c1OCc1ccccc1C#N,3.7%,-9.0
O=C(Nc1ccccc1[N+](=O)[O-])c1ccc(Br)s1,36.4%,14.0
CCOC(=O)c1cc(Cc2ccccc2)sc1NC(=S)Nc1ccc(OCC)cc1[N+](=O)[O-],-13.6%,-9.5
COc1cc(C2c3c(oc4ccccc4c3=O)C(=O)N2c2nnc(C(C)C)s2)cc(Br)c1O (stereo unspecified),19.3%,3.2
COc1ccc(C(=O)C23CC4CC(C2)CC(C(=O)c2ccc(OC)cc2)(C4)C3)cc1,-5.0%,-2.5
Cc1cccc(NC(=O)NNC(=O)c2cc3ccccc3cc2O)c1C,8.5%,-0.8
Cc1cc(C)cc(Oc2ccc(N)cc2)c1,6.9%,2.8
CC12CCC(C(=O)NCc3ccccc3Cl)(CC1=O)C2(C)C (stereo unspecified),7.4%,-6.5
COc1cc(NS(=O)(=O)c2ccc(Cl)cc2)c(OC)cc1Br,-9.6%,-6.6
CCCCn1nnc(NC(=S)NC(=O)CC23CC4CC(CC(C4)C2)C3)n1,1.3%,11.5
COc1ccc(C)cc1NC(=O)NN1CCOCC1,4.8%,-1.6
O=C1NC(=O)N(c2ccc(Cl)cc2)C(=O)/C1=C/c1ccccc1Br,3.8%,2.9
Cc1ccc(NC(=O)C2CCCO2)c([N+](=O)[O-])c1 (stereo unspecified),14.2%,21.5
Cc1csc(NC(=O)CS(=O)(=O)Cc2ccccc2)n1,-2.6%,-4.9
COc1ccc(CONS(=O)(=O)c2ccc(NC(C)=O)cc2)cc1Cl,-7.3%,6.7
CSc1ccc(/C=C(\C#N)c2nc3ccccc3n2C)cc1,2.3%,-0.7
Cc1cc(S(=O)(=O)N(C)C)ccc1F,-2.9%,-10.0
CCOC(=O)c1cnc2ccc(C(=O)OC)cc2c1Nc1cccc([N+](=O)[O-])c1,-17.6%,-3.8
Cn1c(C(=O)c2ccccc2[N+](=O)[O-])nc2ccccc21,12.2%,2.9
CCN(CC)C(=O)c1sc(NC(=S)Nc2cc3oc4ccccc4c3cc2OC)c(C(=O)OC)c1C,4.7%,-7.8
COc1ccc(CCN2C(=O)NC(NC(=O)c3ccccc3)(C(F)(F)F)C2=O)cc1OC (stereo unspecified),6.3%,3.8
O=C(NCc1ccc2c(c1)OCO2)c1cnsn1,5.8%,2.4
Cc1cc(C)n(-c2nc(N3CCOCC3)nc(N3CCOCC3)n2)n1,-4.8%,0.0
Cc1nc(C(N)=NOC(=O)c2sc3cccc(Cl)c3c2Cl)no1,20.9%,-5.0
O=C(Nc1cnn(Cc2ccc(F)cc2)c1)c1cnn2c(C(F)F)cc(-c3ccccc3)nc12,-7.4%,1.8
Cc1nc2cc(-c3ccccc3)ccc2o1,68.3%,18.7
O=C(O)c1cc(-c2ccc(Cl)cc2Cl)on1,-0.6%,-0.4
CS(C)=C1C(=O)NC(=O)N(c2ccccc2F)C1=O,2.1%,-3.7
Cc1nc2ccc(S(=O)(=O)NCc3ccccc3)cc2s1,1.8%,-4.8
O=C(Cn1nc(-c2cccc([N+](=O)[O-])c2)c2ccccc2c1=O)NC1CCCCC1,7.8%,2.7
O=C(O)C1NCCc2ccccc21 (stereo unspecified),-10.2%,-6.2
COc1ccc(C(=O)Nc2cccc(C(C)=O)c2)cc1I,15.6%,1.3

# A draw from above in order of number of heavy atoms, smallest number first:
SMILES,V. cholerae motility,V. cholerae motility viability
O=C(O)C1NCCc2ccccc21 (stereo unspecified),-10.2%,-6.2
Cc1cc(S(=O)(=O)N(C)C)ccc1F,-2.9%,-10.0
O=C(O)c1cc(-c2ccc(Cl)cc2Cl)on1,-0.6%,-0.4
CCOC(=O)CC1NC2CCCCC2NC1=O (stereo unspecified),2.2%,4.8
Cc1ccc(NC(=O)C2CCCO2)c([N+](=O)[O-])c1 (stereo unspecified),14.2%,21.5
Cc1cc(C(=O)Oc2ccccc2C(=O)O)c(C)o1,-7.1%,-6.5
CCOC(=O)C(=O)C(C#N)c1ccc(OC(C)C)cc1 (stereo unspecified),-4.4%,-6.1
COc1ccc(C(=O)Nc2cccc(C(C)=O)c2)cc1I,15.6%,1.3
c1ccc(-c2cnc(SCc3nc4ccccc4[nH]3)[nH]2)cc1,11.5%,1.4
O=C(Nc1ccc(N2CCOCC2)c(Br)c1)c1ccc(F)cc1,4.9%,1.6
S=C(NCC1CCCO1)N1CCN(C/C=C/c2ccccc2)CC1 (stereo unspecified),-1.3%,1.8
C=CCNc1nc(NCCN2CCOCC2)nc(N2CCOCC2)n1,-3.0%,-4.9
O=C(Nc1cccc(-c2nnc(-c3ccccc3)o2)c1)c1ccc(Br)o1,-6.6%,3.5
CC1=CC(C)(C)N(C(=O)CSc2nc3ccccc3o2)c2cc(C)ccc21,-42.6%,-18.6
C=CCn1c(=O)c2c3c(sc2n2c(Nc4ccc(OC)cc4)nnc12)CCC3,-19.9%,-9.2
O=C(Nc1ccc(S(=O)(=O)c2ccc(NC(=O)C(F)(F)F)cc2)cc1)C(F)(F)F,1.7%,1.9
COc1ccc(CCNC(=O)c2nc(SCc3ccccc3)ncc2Cl)cc1OC,6.3%,1.3
COc1ccc(CCN2C(=O)NC(NC(=O)c3ccccc3)(C(F)(F)F)C2=O)cc1OC (stereo unspecified),6.3%,3.8
CCOC(=O)c1cc(Cc2ccccc2)sc1NC(=S)Nc1ccc(OCC)cc1[N+](=O)[O-],-13.6%,-9.5
O=C(Nc1cnn(Cc2ccc(F)cc2)c1)c1cnn2c(C(F)F)cc(-c3ccccc3)nc12,-7.4%,1.8
CCN(CC)C(=O)c1sc(NC(=S)Nc2cc3oc4ccccc4c3cc2OC)c(C(=O)OC)c1C,4.7%,-7.8

# Some values from the list:
# V. cholerae motility result of CSc1ccc(/C=C(\C#N)c2nc3ccccc3n2C)cc1 reads 2.3%
# V. cholerae motility result of C=CCn1c(=O)c2c3c(sc2n2c(Nc4ccc(OC)cc4)nnc12)CCC3 reads -19.9%

# Next section:
SMILES,V. cholerae motility,V. cholerae motility viability
CCn1c2ccccc2c2cc(C#N)ccc21,10.5%,5.4
O=C(Nc1cnn(C23CC4CC(CC(C4)C2)C3)c1)c1cc(-c2ccccc2)on1,-37.2%,-5.5
NC(N)=N/N=C/c1ccc(OS(=O)(=O)c2ccccc2)cc1,33.6%,9.1
Cc1nn2c(=O)nc3sc4c(c3c2[nH]c1=O)CC(C)(C)OC4,7.0%,34.4
COc1ccc(Nc2cc(-n3nc(C)cc3C)nc(C)n2)cc1,-19.9%,-8.2
Cc1nc(-c2ccc(C(=O)Nc3cccc(Cl)c3C)cc2)cs1,-18.9%,-9.0
O=C(O)Cc1ccc(NC(=S)Nc2ccc(Br)cc2Cl)cc1,-4.8%,-13.7
NC(=O)C1CCN(c2nc(-c3ccc(Cl)cc3Cl)cs2)CC1,-26.2%,-6.6
CCOC(=O)c1cc(CN2CCOCC2)c(C)o1,5.4%,-7.7
C=CCc1cc(OC)c(OC)cc1[N+](=O)[O-],48.7%,19.1
O=C(CN(C1CCCCC1)S(=O)(=O)c1ccc(Br)cc1)NCCc1ccccc1,-11.9%,-4.3
Cc1nn2c3cc(N4CCCCC4)ccc3nc2c2ccccc12,-6.0%,-8.8
CC(C)n1c(C(F)(F)F)nc2ccccc21,5.5%,-3.5
O=C(COc1ccccc1C(=O)Nc1ccccn1)Nc1ccccc1-c1ccccc1,4.1%,1.5
O=C(CCCCN1CCC(c2ccccc2)C1)c1ccccc1 (stereo unspecified),13.3%,-3.1
O=S(=O)(Nc1ccc2c(c1)OCCO2)c1ccc(Br)s1,37.9%,12.3
O=C(NCc1ccco1)c1ccccc1NC(=O)C1COc2ccccc2O1 (stereo unspecified),-24.4%,-13.6
COc1ccccc1CCNC(=O)c1csc(C)c1,25.6%,17.6
CCC(C)C(Nc1ncnc2c1oc1ccccc12)C(=O)O (stereo unspecified),12.1%,-3.8
CS(=O)(=O)N1CCN(c2ccc(NC(=S)NC(=O)CC34CC5CC(CC(C5)C3)C4)cc2)CC1,-0.6%,-13.4
CCCCOC(=O)Nc1ccc(S(=O)(=O)Nc2ncccn2)cc1,-16.1%,-6.8
NC(N)=NS(=O)(=O)c1ccc(NC(=S)NC(=O)c2ccc(Cl)cc2Cl)cc1,-13.9%,-8.8
O=[N+]1C=C(c2cccs2)N([O-])C2CCCCC21 (stereo unspecified),3.8%,0.0
CC1CCC(NC(=O)c2ncn[nH]2)CC1 (stereo unspecified),-41.7%,-10.1
CC(=O)C(C)Sc1nc(-c2ccc3c(c2)OCCO3)cc(C(F)(F)F)c1C#N (stereo unspecified),-3.5%,-1.4
Cc1cccc(N2CCN(C(=S)Nc3cccnc3)CC2)c1C,3.9%,-0.6
COc1ccccc1N(CC(O)Cn1nc(C)cc1C)S(=O)(=O)c1ccccc1 (stereo unspecified),-9.2%,-2.4
Cc1onc(C(=O)N2CCN(c3ccc(F)cc3)CC2)c1-c1ccccc1Cl,9.9%,-5.4
O=C(c1cccc([N+](=O)[O-])c1)N1CCN(C(=O)N2CCCCC2)CC1,-10.7%,-0.3
O=C(Nc1ccc2oc(-c3cccnc3)nc2c1)c1oc2ccccc2c1Cl,-7.9%,-8.0
O=C(O)c1cc(CN2CCOCC2)oc1-c1ccccc1,-16.3%,2.9
COC(=O)c1ccccc1NC(=O)c1cc(-c2ccccc2)on1,-17.2%,-2.2
CCOC(=O)N1CCN(C(=O)COc2cc(Cl)c(Cl)cc2Cl)CC1,2.4%,-9.5
COC(=O)c1ccc(COc2nc(C)cc(C)c2C#N)o1,3.8%,-0.5
O=C1c2ccccc2C(=O)N1Cc1ccc(S(=O)(=O)NCCOc2ccc(F)cc2)cc1,-7.3%,-5.3
CC(C)(C)Nc1nc(N2CCCC2)nc(N2CCCC2)n1,1.0%,-0.8
c1ccc(CN=C(Nc2ccccc2)Nc2ccccc2)cc1,33.1%,16.9
CCOC(=O)c1c(C)[nH]c(C(C)=O)c1C,7.8%,-7.4
Nc1nnc(C2CCCCC2C(=O)O)s1 (stereo unspecified),9.1%,-0.6
CCC(C)(C)C1CCc2c(sc(N)c2C(N)=O)C1 (stereo unspecified),-9.3%,-4.8
COc1ccc([N+](=O)[O-])cc1NC(=O)c1cc2sc3ccccc3c2s1,-0.5%,0.4
